RanGTP-Imp inh – disruptors of Ran-importin-beta complex formation – biochemical, FRET, CFP-Ran, YFP-importin-beta, homogeneous, primary screen; 300,000 compounds, 1.1% hits; inhibition, % (concentration not given with the values); cell-free CFP-Ran/YFP-importin-beta FRET ratio;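 active = most replicates above 15%; inconclusive = exactly half above 15%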;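 note: 0% = DMSO wells and 100% = Ran loaded with GDP instead of GTP; wells of about 40 µL received 100 nL stock; the first replicate is given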
ALR inh – blocks human ALR sulfhydryl oxidase activity | inhibition, % (no concentration beside the values) | 290,000 compounds, 3.8% hits | purified ALR, DTT oxidation, H2O2 HRP-luminol luminescence | P55789 | AID 485317;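 active = mean and each replicate at 75% or more; inconclusive = only one of the two met; inactive = neither met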;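 note: stock transfer was 7.5 nL into about 7.5 µL; 0% = neutral wells and 100% = wells with inactivated enzyme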
Target sequence (P55789 whole entry, looked up): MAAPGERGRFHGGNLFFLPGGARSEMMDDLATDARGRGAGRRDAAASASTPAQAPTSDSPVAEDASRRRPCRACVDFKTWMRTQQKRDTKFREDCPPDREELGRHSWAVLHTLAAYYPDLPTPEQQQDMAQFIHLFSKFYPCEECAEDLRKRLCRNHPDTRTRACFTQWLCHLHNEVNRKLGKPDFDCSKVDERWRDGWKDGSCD
Beta apoptosis – beta cell apoptosis inhibition; INS-1E cytokine-induced death, ATP luminescence, 48 h; percent of positive-control rescue, neutral wells zero; protection from apoptosis, % (concentration not given with the values); 300,000 compounds, 0.8% hits;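 active = all replicates at 75% or more, or half of them and the mean; inconclusive = half reach 75% but not the mean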;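 note: 0% = cytokine-treated negative control wells and 100% = positive control rescue; higher means more ATP so stronger rescue from cytokine killing; wells of about 40 µL received 100 nL stock; the first replicate is given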
Calb FLC – affects C. albicans growth with fluconazole | C. albicans CaCi-2 (fluconazole-resistant clinical isolate) + fluconazole, Alamar Blue growth, 48 h | growth inhibition, % (no concentration beside the values) | 300,000 compounds, 0.57% hits;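 active = most replicates above 75%; inconclusive = exactly half above 75%; inactive = most below 75%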;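 note: all wells also contain fluconazole at 8 µg/ml as a sub-toxic cotreatment; 0% = median of DMSO wells and 100% = median of geldanamycin control wells; wells of about 8 µL received 7.5 nL stock; the first replicate is given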
T cruzi inh – blocks replication of Trypanosoma cruzi. T. cruzi beta-gal in NIH3T3, luminescence, 90 h. inhibition, % (test concentration not listed). 300,000 compounds, 1.4% hits;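 active = mean inhibition across valid replicates above about 55%, limit read from the data; inconclusive = mean below that limit but half or more replicates reach it; inactive = mean below it, under half of replicates reach it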;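 note: signal also drops with host cell toxicity which is not excluded here; 0% = plate median of DMSO wells and 100% = zero luminescence signal; higher percent means less beta-gal luminescence so fewer parasites; stock transfer was 50 nL into about 50 µL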
AF4-AF9 inh – inhibitors of human MLL-AF4/AF9 interaction | AlphaScreen, biotin-AF4 peptide binding to FLAG-AF9 | inhibition, % at 10 µM | 350,000 compounds, 0.47% hits | AID 651704;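 active = every replicate reaching a set inhibition limit, whatever the replicate mean, cut at about 25% in these data; inconclusive = mean inhibition reaches that limit but some replicates miss it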;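 note: 0% = plate neutral control median and 100% = total signal loss; the record names both 10 and 1 µM as test concentration; the first replicate is given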
Target sequence (P42568 whole entry, looked up): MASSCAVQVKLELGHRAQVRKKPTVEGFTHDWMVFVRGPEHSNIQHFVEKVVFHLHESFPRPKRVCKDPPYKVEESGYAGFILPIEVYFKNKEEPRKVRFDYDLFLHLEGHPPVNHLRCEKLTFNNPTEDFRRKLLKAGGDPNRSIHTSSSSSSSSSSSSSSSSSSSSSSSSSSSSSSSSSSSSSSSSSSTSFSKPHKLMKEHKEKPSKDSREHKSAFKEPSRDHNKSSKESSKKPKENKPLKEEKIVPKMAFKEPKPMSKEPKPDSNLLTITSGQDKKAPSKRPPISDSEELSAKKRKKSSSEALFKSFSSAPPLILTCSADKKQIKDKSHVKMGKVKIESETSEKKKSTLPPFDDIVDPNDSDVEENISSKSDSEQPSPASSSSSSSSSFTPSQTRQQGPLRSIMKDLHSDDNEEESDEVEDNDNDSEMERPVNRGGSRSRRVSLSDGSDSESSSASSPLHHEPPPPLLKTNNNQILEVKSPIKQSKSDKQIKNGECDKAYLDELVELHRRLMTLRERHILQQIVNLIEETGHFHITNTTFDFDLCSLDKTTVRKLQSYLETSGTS
rRNA inh HTS – inhibits bacterial ribosomal RNA function over humanized ribosomes. GFP signal change (wild-type ribosome), % (concentration not given with the values). 350,000 compounds, 1.6% hits. E. coli WT GFP vs humanized-ribosome RFP mutants, fluorescence, 24 h; hits give low values; DMSO median 0, no signal -100;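 active = significant combined selectivity score with lowered wild-type GFP, culture density cut under 30%, mutant RFP and density less affected; inactive = any of these conditions unmet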; note: one replicate is shown; some compounds called inactive have numbers as strong as hits
FGF22 binding – binders of recombinant human FGF22 by thermal shift. calls only at 9.99 µM. AID 651658. 340,000 compounds, 1.5% hits. SYPRO orange fluorescence; percent of sucrose octasulfate shift, DMSO zero. Q9HCT0;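 active = melting point raised past a set limit in the mean and every replicate; inconclusive = no clear call; three in four hits are not shown here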
Target sequence (Q9HCT0 whole entry, looked up): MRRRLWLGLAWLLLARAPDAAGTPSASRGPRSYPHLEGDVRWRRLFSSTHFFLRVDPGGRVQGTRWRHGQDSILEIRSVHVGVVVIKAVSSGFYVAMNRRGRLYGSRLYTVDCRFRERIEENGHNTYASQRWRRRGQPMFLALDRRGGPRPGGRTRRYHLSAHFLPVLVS
rRNA inh HTS OD600 – further read-out of rRNA inh HTS, marked with its call; OD600 change, %; measured here: OD600 growth;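 optical density of the mix in the first replicate; 0 = DMSO median and -100 = no signal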
rRNA inh HTS RFP – also measured in rRNA inh HTS; calls as there; RFP signal change, %; measured here: RFP humanized mutant strains;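 first replicate; 0 = DMSO median and -100 = no signal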
Starred values were filed as active, the others as inactive. A portion of the library; rates above refer to the full screens.

Results for Cc1cccc(-n2cc(-c3ccccc3)c3c(NN4CCOCC4)ncnc32)c1 ?
RanGTP-Imp inh: 3.2; ALR inh: 35; Beta apoptosis: -7; Calb FLC: -1; T cruzi inh: 14; AF4-AF9 inh: -40; rRNA inh HTS: 1; rRNA inh HTS OD600: -8; rRNA inh HTS RFP: 17

How did CC(C)C(=O)OC/C(O)=C(\C#N)c1nc2ccccc2[nH]1 do in these assays?
RanGTP-Imp inh: 15*; ALR inh: 3; Beta apoptosis: 3; Calb FLC: 23; T cruzi inh: -8; AF4-AF9 inh: -1.4; rRNA inh HTS: 20; FGF22 binding: inactive; rRNA inh HTS OD600: 12; rRNA inh HTS RFP: 6.2

How did O=C1CN(C(=O)c2cc(Br)c(Br)s2)c2ccccc2N1 do in these assays?
RanGTP-Imp inh: 0.7; ALR inh: -6; Beta apoptosis: 6; Calb FLC: 2; T cruzi inh: 1

Results for CC(C)CCNC(=O)Cc1ccc(Nc2nc(=S)[nH]c3ccccc23)cc1 ?
RanGTP-Imp inh: 2.8; ALR inh: 36; Beta apoptosis: 7; Calb FLC: -11; T cruzi inh: 7; AF4-AF9 inh: -1.6; rRNA inh HTS: 12; FGF22 binding: inactive; rRNA inh HTS OD600: -8; rRNA inh HTS RFP: 19

How did COc1ccccc1NC(=O)CCC(=O)OC(C)C(=O)c1ccccc1 (centres undefined) do in these assays?
RanGTP-Imp inh: 4.1; ALR inh: 2; Beta apoptosis: 1; Calb FLC: -2; T cruzi inh: 0; AF4-AF9 inh: -0.7; rRNA inh HTS: 7; FGF22 binding: inactive; rRNA inh HTS OD600: 16; rRNA inh HTS RFP: -3.7

How did N#Cc1c(-c2ccccc2Cl)cc(-c2ccccc2)[nH]c1=S do in these assays?
RanGTP-Imp inh: 1.0; ALR inh: 6; Beta apoptosis: -8; Calb FLC: inconclusive; T cruzi inh: -6

What do the screens show for `COc1cc(NC(=O)c2cccc3c2C(=O)N(C2CCCCC2)C3)cc(OC)c1OC`?
RanGTP-Imp inh: 3.8; ALR inh: -3; Beta apoptosis: 8; Calb FLC: 33; T cruzi inh: 32; AF4-AF9 inh: 11; rRNA inh HTS: -41*; FGF22 binding: inactive; rRNA inh HTS OD600: -33*; rRNA inh HTS RFP: 0.1*

How did COc1ccc(N(CC(=O)NCCSc2ccccc2)S(=O)(=O)c2ccccc2)cc1 do in these assays?
RanGTP-Imp inh: 3.0; ALR inh: 9; Calb FLC: 1; T cruzi inh: 25; AF4-AF9 inh: -0.9; rRNA inh HTS: -30; FGF22 binding: inactive; rRNA inh HTS OD600: -24; rRNA inh HTS RFP: -1.7

Results for COC(=O)c1ccccc1NC(=O)CSc1nccn1C ?
RanGTP-Imp inh: -2.4; ALR inh: -11; Beta apoptosis: -2; Calb FLC: 8; T cruzi inh: -1

How did CCCC(C)NC(C)C(=O)NC1CCCC1 (centres undefined) do in these assays?
RanGTP-Imp inh: 2.2; ALR inh: -4; Beta apoptosis: 1; Calb FLC: -14; T cruzi inh: 3

How did CC1CCCCN1CCCNC(=O)CCCN1C(=O)c2cccnc2Sc2ccccc21 (centres undefined) do in these assays?
RanGTP-Imp inh: -2.7; ALR inh: -10; Beta apoptosis: -7; Calb FLC: -8; T cruzi inh: -2

How did O=C(Cn1nc(-c2ccc(N3CCOCC3)c([N+](=O)[O-])c2)c2ccccc2c1=O)N1CCCCC1 do in these assays?
RanGTP-Imp inh: -1.3; ALR inh: -2; Beta apoptosis: -1; Calb FLC: 6; T cruzi inh: 7

How did CC(C)(C)C(=O)CN1CCN(S(=O)(=O)c2ccc(F)cc2)CC1 do in these assays?
RanGTP-Imp inh: -2.8; Beta apoptosis: -8; Calb FLC: -6; T cruzi inh: -12

What do the screens show for `CC(C)(C)c1ccc(S(=O)(=O)N2CCN(CC(=O)NC(=O)NC3CCCCC3)CC2)cc1`?
RanGTP-Imp inh: inconclusive; ALR inh: -3; Beta apoptosis: 9; Calb FLC: -5; T cruzi inh: 23; AF4-AF9 inh: -8.0; rRNA inh HTS: -3; FGF22 binding: inactive; rRNA inh HTS OD600: 6; rRNA inh HTS RFP: 0.4

Results for CN(c1ccccc1)P(=O)(N(C)c1ccccc1)N(C)c1ccccc1 ?
RanGTP-Imp inh: -2.0; ALR inh: -11; Beta apoptosis: 15; Calb FLC: -28; T cruzi inh: 66*; AF4-AF9 inh: 0.4; rRNA inh HTS: -32; FGF22 binding: inactive; rRNA inh HTS OD600: -53; rRNA inh HTS RFP: -7.2

How did Cn1c(=O)[nH]c(=O)c2c1nc(SCCN1CCOCC1)n2Cc1ccccc1 do in these assays?
RanGTP-Imp inh: 0.5; ALR inh: -2; Beta apoptosis: 4; Calb FLC: 0; T cruzi inh: 3

Results for O=C(CN1C(=O)NC(Cc2ccccc2)C1=O)Nc1ccc(F)c(F)c1F (centres undefined) ?
ALR inh: 0; Beta apoptosis: -1; AF4-AF9 inh: 0.3; rRNA inh HTS: 5; FGF22 binding: inactive; rRNA inh HTS OD600: 5; rRNA inh HTS RFP: 0.4

What do the screens show for `COc1ccccc1C1C2CCCCC2(O)CCN1CC(=O)Nc1ccccc1` (centres undefined)?
RanGTP-Imp inh: 0.3; ALR inh: -4; Beta apoptosis: 10; Calb FLC: 24; T cruzi inh: 15; AF4-AF9 inh: 9.5; rRNA inh HTS: -45; FGF22 binding: inactive; rRNA inh HTS OD600: -61; rRNA inh HTS RFP: -2.8

How did Cn1c(=O)c2c(ncn2CC(=O)Nc2nnc(Cc3ccccc3)s2)n(C)c1=O do in these assays?
RanGTP-Imp inh: 3.5; ALR inh: 1; Beta apoptosis: 1; Calb FLC: 13; T cruzi inh: 1

Results for C=CC[C@@H](CC(=O)N[C@H](CO)Cc1ccccc1)C(=O)NCCOC(=O)[C@@H](CC=C)Cc1ccc(F)cc1 ?
ALR inh: 0; Beta apoptosis: 2; AF4-AF9 inh: 0.2; rRNA inh HTS: -16; FGF22 binding: inactive; rRNA inh HTS OD600: -14; rRNA inh HTS RFP: 7.3

Results for CC1(C)C2CCC1(CS(=O)(=O)N1CCC(C(=O)O)CC1)C(=O)C2 (centres undefined) ?
RanGTP-Imp inh: -1.6; ALR inh: -4; Beta apoptosis: -8; Calb FLC: 2; T cruzi inh: -9; AF4-AF9 inh: 4.6; rRNA inh HTS: 2; FGF22 binding: inactive; rRNA inh HTS OD600: 8; rRNA inh HTS RFP: 5.8

What do the screens show for `Cc1nc2scc(C)n2c(=O)c1S(=O)(=O)Nc1ccc(OC(F)(F)F)cc1`?
RanGTP-Imp inh: 3.8; Beta apoptosis: 6; Calb FLC: 4; T cruzi inh: -25; AF4-AF9 inh: -7.3; rRNA inh HTS: 2; FGF22 binding: inactive; rRNA inh HTS OD600: -11; rRNA inh HTS RFP: 2.9

Results for O=C(CCCOc1ccc(Cl)cc1Cl)Nc1ccccn1 ?
RanGTP-Imp inh: 0.6; ALR inh: -3; Beta apoptosis: -9; Calb FLC: -1; T cruzi inh: 7; AF4-AF9 inh: -0.2; rRNA inh HTS: -4; FGF22 binding: inactive; rRNA inh HTS OD600: -20; rRNA inh HTS RFP: -6.9

What do the screens show for `COc1ccc2nc(NC(=O)C3CSC4(C)CCC(=O)N34)sc2c1` (centres undefined)?
RanGTP-Imp inh: 0.0; ALR inh: -8; Calb FLC: 14; T cruzi inh: -8; AF4-AF9 inh: -1.2; rRNA inh HTS: -8; FGF22 binding: inactive; rRNA inh HTS OD600: -12; rRNA inh HTS RFP: 0.0

What do the screens show for `O=C(Nc1nnc(-c2ccco2)o1)c1cccc(Cl)c1`?
RanGTP-Imp inh: 0.2; ALR inh: 96*; Beta apoptosis: -4; Calb FLC: 87*; T cruzi inh: 52; AF4-AF9 inh: 0.1; rRNA inh HTS: -8; FGF22 binding: inactive; rRNA inh HTS OD600: -12; rRNA inh HTS RFP: -0.2

Results for COc1ccc(OC)c(CCNC(=O)CS(=O)(=O)Cc2nc(-c3ccccc3C)oc2C)c1 ?
RanGTP-Imp inh: 3.4; ALR inh: -9; Beta apoptosis: 1; Calb FLC: 3; T cruzi inh: 33

What do the screens show for `Cc1ccc(NC(=O)CCC(=O)NNC(=O)COc2ccccc2)c(C)c1`?
RanGTP-Imp inh: 0.8; ALR inh: -6; Beta apoptosis: -2; Calb FLC: 3; T cruzi inh: -3; AF4-AF9 inh: 5.1; FGF22 binding: inactive

How did CC1CCN(C(=S)Nc2cccc(S(=O)(=O)N(C)C)c2)CC1 do in these assays?
RanGTP-Imp inh: -3.3; ALR inh: -1; Calb FLC: -6; T cruzi inh: -1; AF4-AF9 inh: -0.9; rRNA inh HTS: 7; FGF22 binding: inactive; rRNA inh HTS OD600: -8; rRNA inh HTS RFP: -1.7

Results for COc1ccc(-c2nc(CSCC(=O)NCCC3=CCCCC3)c(C)o2)cc1OC ?
RanGTP-Imp inh: 1.3; ALR inh: 100*; Beta apoptosis: 6; Calb FLC: 3; T cruzi inh: 9

How did CCN1CCN(C(=O)c2ccc3c(Cl)c4c(nc3c2)CCCC4)CC1 do in these assays?
RanGTP-Imp inh: 1.4; ALR inh: 98*; Beta apoptosis: -4; Calb FLC: -18; T cruzi inh: 7; AF4-AF9 inh: 1.3; rRNA inh HTS: 5; FGF22 binding: inactive; rRNA inh HTS OD600: 2; rRNA inh HTS RFP: 3.6

Results for CCOC(=O)c1c(-c2ccccc2)nc2cc(C)ccn12 ?
RanGTP-Imp inh: inconclusive; ALR inh: -1; Beta apoptosis: -1; Calb FLC: 1; T cruzi inh: 6

Results for c1ccc(-c2cc(N3CCOCC3)nc3ccccc23)cc1 ?
RanGTP-Imp inh: inconclusive; ALR inh: -1; Beta apoptosis: 12; Calb FLC: -2; T cruzi inh: 3

What do the screens show for `COc1ccc([N+](=O)[O-])cc1COc1cc(C)cc2oc(=O)cc(-c3ccccc3)c12`?
RanGTP-Imp inh: 6.0; ALR inh: -2; Beta apoptosis: 36; Calb FLC: 6; T cruzi inh: 33

What do the screens show for `Cc1cc(C(=O)COC(=O)c2ccc(Cl)c(S(N)(=O)=O)c2)c(C)n1C1CC1`?
RanGTP-Imp inh: -1.6; ALR inh: 6; Beta apoptosis: 3; Calb FLC: 4; T cruzi inh: 28; AF4-AF9 inh: 11; rRNA inh HTS: -12; FGF22 binding: inactive; rRNA inh HTS OD600: -13; rRNA inh HTS RFP: 1.6

How did CC1(C)c2ssc(=S)c2-c2ccccc2N1C(=O)CSC1=NCCS1 do in these assays?
RanGTP-Imp inh: 5.1; ALR inh: 7; Beta apoptosis: -7; Calb FLC: 11; T cruzi inh: 48

How did Cc1ncoc1C(=O)N1CCCC(C(=O)Nc2cccc(-c3ccc(F)cc3)c2)C1 (centres undefined) do in these assays?
RanGTP-Imp inh: 3.5; ALR inh: 29; Beta apoptosis: -6; Calb FLC: -4; T cruzi inh: 9; AF4-AF9 inh: 0.4; rRNA inh HTS: -30; FGF22 binding: inactive; rRNA inh HTS OD600: -34; rRNA inh HTS RFP: -5.2
